HSD17B inh = qHTS Assay for Inhibitors of HSD17B4, hydroxysteroid (17-beta) dehydrogenase 4 | 3-hydroxyacyl-CoA dehydrogenase type-2 (Homo sapiens), Q99714 | recombinant HSD17B10, NADH fluorescence kinetic; many of its hits are not listed in these tables | Potency, µM (series often up to 57.1 µM), without a hit: at the top dose activity change, negative = inhibition, usual class: inhibitors | 75,000 compounds, 7.6% hits; active means well fitted inhibition curve with a large enough effect; inconclusive means small, poorly fitted or top-dose-only effect; inactive means no such curve, though single readings can be large or run the other way;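 further: the protocol describes HADH2 (HSD17B10) and not the HSD17B4 of the title; nearly all actives have a fitted effect of over 70% in size; most hits overshoot -100% by far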
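His-tagged E. coli-expressed HADH2 at 20 nM in 100 mM Tris-HCl pH 9.0 with 0.01 % Tween-20, preincubated 15 min with compound at room temperature. Reaction with 1 mM NAD+ and 90 uM beta-hydroxybutyryl coenzyme A; NADH fluorescence (360/450 nm) read kinetically over 4 min, last minus first point.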
* hit, by the source's call; u = inconclusive; [ ] = remark or other dose. On the % scale 0 is the no-effect control and ±100 the full control effect; potency means the concentration at half of the fitted maximal effect.

SMILES | HSD17B inh
CCCCC(=O)Nc1nnc(C)s1 | 4.1%
COc1ccc(CCNS(=O)(=O)c2cn(C)c(=O)n(C)c2=O)cc1OC | 31.6µM*
Fc1ccc(Nc2nc(-c3cccnc3)nc3ccccc23)cc1 | u
CN(C1CCCCC1)S(=O)(=O)c1ccc(NC(=O)C2CCCCC2C(=O)O)cc1 (stereo not drawn) | 2.2%
Cc1cc(NC(=O)Cn2nc(C(F)(F)F)c3c2CCC3)no1 | 6.9%
CNc1ccnc(-c2ccccc2OC)n1 | 4.2%
CCOC(=O)c1cnc(-n2nc(C)cc2C)nc1NC1CCCCC1 | 8.7%
CCC(OC(=O)c1cccs1)C(=O)NC1CCCCC1 (stereo not drawn) | 5.0%
CN1C(=O)CC(N2CCN(c3ncccn3)CC2)C1=O (stereo not drawn) | 1.0%
COc1cc(OC)cc(-c2nc(N)n[nH]2)c1 | u
COc1ccccc1-c1ccc(Nc2cccc(C(C)=O)c2)nn1 | 1.8%
Cc1onc(-c2ccccc2Cl)c1C(=O)Nc1ccc(-n2nncc2-c2ccco2)cc1 | -11.7%
Cn1cc(SCC(=O)Nc2nc3ccccc3s2)c2ccccc21 | -3.7%
COC(=O)N1CCC2(CCN(C(=O)Nc3cccc(C#N)c3)CC2)CC1 | 0.7%
O=C(CSc1nnc2ccccn12)c1ccc2c(c1)OCCO2 | -2.1%

Three structures already listed, sorted by number of heavy atoms, lowest first:
SMILES | HSD17B inh
CCCCC(=O)Nc1nnc(C)s1 | 4.1%
COc1cc(OC)cc(-c2nc(N)n[nH]2)c1 | u
CN1C(=O)CC(N2CCN(c3ncccn3)CC2)C1=O (stereo not drawn) | 1.0%

Further structures
SMILES | HSD17B inh
Cc1ccc(NC(=O)N2CCC(c3nc4c(nnn4Cc4cccc(Cl)c4)c(=O)[nH]3)CC2)cc1 | -20.7%
O=C(NCc1ccco1)c1cc2sccc2n1Cc1ccc(F)cc1 | -7.5%
COc1ccccc1N1CCN(C(=O)c2sc3nc(-c4ccc(F)cc4)cn3c2C)CC1 | 6.7%
C=CCN1C(=O)CN=C1NCc1ccccc1 | 3.0%
CCCn1c(NC(=O)c2ccccc2)nc2ccccc21 | 3.4%
O=C(Nc1ccc(S(=O)(=O)C(F)F)cc1)c1cccc(S(=O)(=O)N2CCOCC2)c1 | 3.1%
COc1ccc(CCNC(=O)c2ccncc2)cc1OC | 9.3%
Cc1cccc(CNc2ncnc3ccc(-c4cccc(NS(C)(=O)=O)c4)cc23)c1 | -3.2%
COC(=O)c1cccc(NC(=O)c2ccc(S(=O)(=O)N3CCN(C)CC3)cc2)c1 | -1.1%
COc1ccc(C2CC(c3cc(OC)ccc3OC)n3nnnc3N2)cc1 (stereo not drawn) | -3.5%
COc1ccc(OC)c(S(=O)(=O)N2CCC(C(=O)NCCC3=CCCCC3)CC2)c1 | 3.4%
CC(=O)NCC1=C(NC(C)=O)C2CC1C(C)(C)C2C (stereo not drawn) | 9.1%
C=CCN(C(=O)CCC(=O)Nc1cc(C)on1)C(C(=O)NC1CCCC1)c1cccnc1 (stereo not drawn) | 4.6%
COc1c(Br)cc(Br)cc1/C=N/n1c(C)nnc1C | 0.9%
CCN1CCN(c2nc3ccccc3nc2C(C#N)C(=O)OCc2ccccc2)CC1 (stereo not drawn) | -4.7%
CCCn1c(NCc2ccc3c(c2)OCO3)nc2ccccc21 | -2.1%
CC(=O)c1ccc(NC(=O)CSCCO)cc1 | -4.5%
COC(=O)C1CCN(C(=O)c2ccc(NC(C)=O)cc2)CC1 | 2.7%
N#Cc1ccc(C23CC4CC(CC(C4)C2)C3)[nH]c1=O | 25.1µM*
CC(=O)c1cccc(NC(=O)C2CCCN(S(C)(=O)=O)C2)c1 (stereo not drawn) | 11.5%
CCc1c(C)sc(NC(=O)OC)c1C(=O)N1CCOCC1 | 0.2%
Cc1ccc(NC(=O)NCC(c2cccnc2)N2CCOCC2)cc1 (stereo not drawn) | 2.5%
CN(c1ccc(OCC(=O)N2CCCCC2)cc1)S(=O)(=O)c1cccs1 | -5.7%
CCOC(=O)c1ccc(N2C(=O)CC(N(C)CCc3ccc(OC)c(OC)c3)C2=O)cc1 (stereo not drawn) | -2.7%
O=[N+]([O-])c1ccc2c(c1)c(S(=O)(=O)O)cc1nonc12 | 5.6%[11.4 µM]
C=CCn1c(SCc2ccc(C#N)cc2)nnc1-c1cccc(Cl)c1 | -6.9%
CN1CC[C@@]23c4ccccc4N[C@H]1[C@]21CCN(C)[C@@H]3Nc2ccccc21 | 1.0%[25.6 µM]
CS(=O)(=O)N(CC(=O)NC1CCCC1)c1ccc2c(c1)OCCO2 | -0.8%
CCOC(=O)N1CCC(NS(=O)(=O)c2cc(Br)cc3c2N(C(=O)CC)CC3)CC1 | 2.0%
CC1CCCN(Cc2nc3c(c(=O)n(C)c(=O)n3C)n2CC(=O)c2ccccc2)C1 (stereo not drawn) | -10.4%
CCC(C)c1ccc(OCC(=O)O)cc1 (stereo not drawn) | 1.7%
COc1ccc(NC(=O)N2CC[C@@]3(CCCN(C(=O)c4cnccn4)C3)C2)cc1 | 0.0%
COc1ccc(C2C(=O)N(C3CCCCCC3)CC(=O)N2Cc2ccccc2)cc1OC (stereo not drawn) | 1.6%
COc1ccc2ccccc2c1C1CC(=O)N2CN(Cc3ccco3)CSC2=C1C#N (stereo not drawn) | 25.1µM*
COc1cccc(-c2nc(N3CCN(C)CC3)c3ccccc3n2)c1 | 4.4%
C=CCn1c(=O)c2c(nc3n2CCS3)n(C)c1=O | 3.1%
CC1=Nn2c(nnc2-c2ccccn2)SC1 | -4.6%
CCCn1c(C)nc2c(N(C)CCN(C)C)nc(C)nc21 | 1.1%
Cc1cc(C)c2cc(CN(CCO)Cc3nnnn3Cc3ccccc3)c(=O)[nH]c2c1 | 2.9%
COCCN(C(=O)CCC(=O)Nc1ccccn1)C(C(=O)NCCC(C)C)c1ccc(OC)cc1 (stereo not drawn) | -0.4%
O=C(CSc1nc(-c2ccco2)cc(C(F)(F)F)n1)NCc1cccs1 | -24.8%
CCC(C)[C@H](NC(=O)NCCCN1CCOCC1)C(=O)OC (stereo partly drawn) | 7.2%
Cc1cc(C(=O)CN2C(=O)c3ccccc3S2(=O)=O)c(C)n1CC1CCCO1 (stereo not drawn) | 2.9%
N#Cc1ccc2c(c1)N(CCCN1CCC(O)CC1)c1ccccc1S2 | -4.3%
O=C(CN1C(=O)c2ccccc2S1(=O)=O)N1CCc2ccccc21 | 7.1%
Cc1cccc2cc(CN(CCCO)C(=O)Nc3cccc(Cl)c3)c(=O)[nH]c12 | u
CS(=O)(=O)N(Cc1ccccc1)c1ccccn1 | -4.6%
COc1ccc(CC(=O)Nc2nc3n(n2)C(c2ccccc2)CC(=O)N3)cc1OC (stereo not drawn) | -2.1%
C=CCc1cccc(CNc2nc3ccccc3n2CCC)c1O | 8.2%
O=C1COc2ccc3ccccc3c2CN1 | -2.5%
CCOC(=O)C1=C(C)NC2=C(C(=O)C(C(=O)OC)C(C)C2)C1c1ccc(OC)c(O)c1 (stereo not drawn) | -7.1%
O=C(c1ccccc1-c1nc(-c2ccc(F)cc2)no1)N1CCCC1 | -6.8%
CCCS(=O)(=O)N1CCCC(C(=O)NCCCN(C)Cc2ccccc2)C1 (stereo not drawn) | 2.8%
O=C(CCc1nc2ccccc2[nH]c1=O)OCC(=O)N1CCc2ccccc21 | u
O=C(O)CCC(NC(=O)OCc1ccccc1)C(=O)O (stereo not drawn) | 1.2%
Cc1cc(OCC(=O)Nc2ccncc2)ccc1Br | -7.3%
Fc1ccc(N2CCN(C(c3cccs3)c3nnnn3C3CCCC3)CC2)cc1 (stereo not drawn) | 0.1%
Cc1nc(SCC(=O)Nc2ccc(C)c(F)c2)c2oc3ccccc3c2n1 | 16.6%
Cc1noc(C)c1S(=O)(=O)N1CCC(C(=O)N2CCN(c3ccc(Cl)cc3)CC2)CC1 | 1.3%
CCOc1ccc(-c2nnc(SCC(=O)N(CC)CC)n2N)cc1 | 2.3%

Part of the list above, as labelled records.
Cc1cccc(CNc2ncnc3ccc(-c4cccc(NS(C)(=O)=O)c4)cc23)c1
  HSD17B inh: -3.2%

COC(=O)c1cccc(NC(=O)c2ccc(S(=O)(=O)N3CCN(C)CC3)cc2)c1
  HSD17B inh: -1.1%

COc1ccc(C2CC(c3cc(OC)ccc3OC)n3nnnc3N2)cc1 (stereo not drawn)
  HSD17B inh: -3.5%

COc1ccc(OC)c(S(=O)(=O)N2CCC(C(=O)NCCC3=CCCCC3)CC2)c1
  HSD17B inh: 3.4%

Later entries
SMILES | HSD17B inh
O=C(Nc1ccc(F)cc1)N1CCN(c2nc3ccccc3s2)CC1 | 5.9%
CCOC(=O)CN1C(=O)C(C)(C)Oc2ccc(C(=O)NC(C)(C)CC)cc21 | -4.0%
CC(C)OC(=O)CSc1nnc(-c2cnccn2)n1-c1ccc(Cl)cc1 | -5.0%
COc1ccccc1CNc1ncncc1-c1cccc(C#N)c1 | -7.4%
Cc1ccnc(N2CCC(C(=O)Nc3nnc(C)s3)CC2)n1 | u
COc1ccc(-c2cc(C(F)(F)F)nc(SCCC(=O)N3CCOCC3)n2)cc1 | u
COc1ccc(OCc2ccc(-c3nc4ccccc4c(=O)n3N)o2)cc1 | u
COc1ccc(Cc2c(O)nc(SC)n(C(C)=O)c2=O)cc1 | 2.0%
CC(C)(C)c1ccc(OCCn2ccccc2=O)cc1 | -8.7%
CCOC(=O)c1cc(C)n(CCCN2CCOCC2)c1C | 5.9%
CCCC(=O)Nc1nc2ccc(NC(=O)c3ccc(Br)o3)cc2s1 | -56.5%
O=C(c1ccccc1)c1cccn1CC(=O)N1CCN(C2CCCCC2)CC1 | -3.4%
CC(=O)OC1CC(C)(C)N(OC(=O)CCCN2C(=O)c3ccccc3C2=O)C(C)(C)C1 | -2.5%
Cn1ncc2c(N3CCOCC3)ncnc21 | 3.5%
CCc1nc(SCC(=O)N2CCN(c3ccccc3)CC2)c2c(=O)n(C)c(=O)n(C)c2n1 | 25.1µM*
O=C(C1=C(O)C(=O)N(CCOCCO)C1c1cccs1)c1cccs1 (stereo not drawn) | -13.4%
CCCCN1CC(O)=C(c2nc3ccccc3[nH]2)C1=N | -9.9%
O=S(=O)(O)c1cc(N=Nc2cccc3ccccc23)c(O)c2ncccc12 | -9.8%[11.4 µM]
O=C(CN1CCCCCC1)NCCc1ccc(F)cc1 | 4.1%
COc1ccccc1NC(=O)Cn1nnc(C(=O)Nc2ccccc2)c1N | 47.1%[activator]
O=C(NCc1ccccc1)NC1CC2CCC(C1)N2Cc1ccco1 (stereo not drawn) | 2.2%
CCC(C(=O)OCC(=O)Nc1c(C)n(C)n(-c2ccccc2)c1=O)c1ccccc1 (stereo not drawn) | -7.2%
COC(=O)c1cc(COc2ccc3c4c(c(=O)oc3c2)CCCC4)c(C)o1 | 12.6µM*
O=C(NC1CCCC1)C1CCN(S(=O)(=O)N2CCCCC2)CC1 | 2.3%
COc1ccc(-c2noc(CSc3nc(N)c(-c4ccccc4)c(=O)[nH]3)n2)cc1 | 0.4%
Nc1ccc(-c2nc3c(Cl)c(N)ccc3[nH]2)cc1 | 7.94µM*
COc1cccc(NC(=O)Cc2cn(C)c3ccccc23)c1 | 16.7%
C[C@@H]1/C=C\CC(=O)OC[C@H]2O[C@@H](C=C[C@@H]2O)[C@H](C)/C=C\CC(=O)OC[C@H]2O[C@H]1C=C[C@@H]2O | -0.3%[11.4 µM]
Cc1ccccc1NC1=NC(C)(C)N=C(N)N1 | 23.2%
CC1(C)CC(=O)C(C=Nc2ccc(O)cc2)=C(O)C1 | -10.8%

Already shown: 2 of the compounds above.
SMILES | HSD17B inh
O=S(=O)(O)c1cc(N=Nc2cccc3ccccc23)c(O)c2ncccc12 | -9.8%[11.4 µM]
O=C(CN1CCCCCC1)NCCc1ccc(F)cc1 | 4.1%

Further entries
SMILES | HSD17B inh
O=C(NC1CCCCCC1)c1c(F)c(F)c(F)c(F)c1F | 9.0%
COc1cccc(N(C(=O)c2ccco2)C(C(=O)NC2CCCC2)c2cccnc2)c1 (stereo not drawn) | -12.3%
C=CC(C)Sc1nc2c(c(=O)n(C)c(=O)n2C)n1Cc1ccccc1Cl (stereo not drawn) | 8.2%
COC(=O)c1ccc(COc2cccc(OC)c2)o1 | -0.5%
Cc1ccc(N2C(=O)c3n[nH]c(C)c3C2c2ccccn2)cc1 (stereo not drawn) | 8.8%
O=C(NCCCN1CCCC1=O)c1ccc(Cl)c(NS(=O)(=O)c2ccc(F)cc2)c1 | 10.6%
COc1cccc([C@H]2Oc3ccc(OC)cc3/C(=N\OCC[C@@H]3C=C[C@H](OC(C)=O)[C@H](COC(C)=O)O3)[C@@H]2O)c1 | -5.5%[11.4 µM]
CC(C)[C@H](NC(=O)NCc1ccc(Cl)cc1)C(=O)O | 1.0%
CCC(=O)Nc1cc(C(F)(F)F)ccc1N1CCOCC1 | 3.6%
Cc1cc(N(C)C)c(C#N)c(NCc2ccccc2)n1 | -3.2%
Cc1noc(C)c1C(=O)Nc1sc(C)c(C)c1C#N | -0.8%
Cc1cccc(Nc2ncccc2C(=O)O)c1C | 2.8%
Cn1cnc2c1c(=O)n(Cc1ccccc1)c(=O)n2C | 8.0%
COC(=O)C1=C(C)Nc2ncnn2C1c1ccco1 (stereo not drawn) | 4.8%
O=C1c2ccncc2C(=O)N1C1CCCCC1 | 12.2%
COc1cc(NC(=O)c2cc(-c3cccc(O)c3)on2)cc(OC)c1OC | -7.1%

Screening results as filed in PubChem BioAssay.

Only part of the results is shown; the hit share may differ from the screen's.
